Sa growth 42C = inhibitors of Staphylococcus aureus growth at 42 °C | S. aureus RN4220 growth, OD600, 20 h; active compounds read low | relative growth, % (test concentration not listed) | actives 0.53% (n = 170,000);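 active = growth at 42 °C up to 50% and 20 or more points under that at 30 °C, or under 10% at both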;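 also: 300 nL library stock went into each well; scaled to the means of positive and negative controls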
GIV-Gai inh = GIV-Galpha-i interaction inhibition | P08753 | Galpha-i3/FITC-GIV peptide fluorescence polarization, 90 min; active compounds read low; scaled: aluminum fluoride 0%, vehicle 100% | percent of control (FP), % (concentration not given with the values) | actives 0.42% (n = 210,000);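 active = replicate mean at 85% of control or lower, very high polarization wells dropped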;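 also: wells of about 15 µL received 100 nL stock; the first replicate is given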
Target sequence (P08753 whole entry, looked up): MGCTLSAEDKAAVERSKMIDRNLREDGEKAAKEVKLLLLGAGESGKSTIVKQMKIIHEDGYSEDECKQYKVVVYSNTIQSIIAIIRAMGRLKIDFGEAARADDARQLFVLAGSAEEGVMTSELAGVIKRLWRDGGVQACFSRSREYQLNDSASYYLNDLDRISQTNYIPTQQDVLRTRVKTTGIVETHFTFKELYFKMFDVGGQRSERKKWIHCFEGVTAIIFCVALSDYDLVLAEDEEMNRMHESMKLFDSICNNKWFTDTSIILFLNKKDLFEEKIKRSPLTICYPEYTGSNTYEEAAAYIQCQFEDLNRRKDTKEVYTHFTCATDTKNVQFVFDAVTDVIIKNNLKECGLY
HCMV UL50-53 inh = cytomegalovirus nuclear egress complex inhibition; inhibition, % (no concentration beside the values); actives 0.15% (n = 190,000); HTRF UL50-UL53 interaction, normalized percent inhibition; AID 1918969;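 active = both replicates at 50% or more, plus weaker picks with an unusually low signal ratio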;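 also: stock transfer was 100 nL into about 20 µL; 0% = negative control wells and 100% = wells with untagged competitor protein; inactives centre near -12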
Sa growth 42C second temp = recorded beside Sa growth 42C, whose call it bears; relative growth, %; measured here: growth at 30 °C;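 optical density after 20 h as mean of two plates; 100% = untreated growth and lower means inhibition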
* = called active by the depositor; . = not tested or not shown; & = joins results of further samples. The order is random; about 0.85% have a hit in one of these screens.

1. Cc1ccc(-c2nc(CCNC(=O)C(=O)Nc3c(C)cccc3C)cs2)cc1
2. Cc1ccc(-n2c(C)nc3c(cnn3-c3ccccc3)c2=O)cc1
3. CCCOC(=O)c1ccc(NC(=O)c2ccc(C)c(Br)c2)cc1
4. O=C(NCC(c1cccnc1)N1CCc2ccccc2C1)C(=O)Nc1ccccc1 (stereo not given)
5. O=c1cc(Cn2c(=O)n3nc(-c4ccccc4)nc3c3ccccc32)nc2ccc(Cl)cn12
6. O=C(O)CSC1(SCC(=O)O)CCCCC1

Screen / compound no.,1,2,3,4,5,6
Sa growth 42C,110,96,117,87,.,112
Sa growth 42C second temp,99,91,89,88,.,90
GIV-Gai inh,100,105,.,108,101,103
HCMV UL50-53 inh,.,.,-19,-20,-8,.

7. CCNc1nc2cccnc2s1
8. c1nc(N2CCOCC2)nc(N2CCOCC2)n1
9. COc1ccc(CCNc2nc(-c3ccc(F)cc3)cc(C(F)(F)F)n2)cc1OC
10. CC(C)(C)c1cc(/N=C/c2c(O)[nH]c(=O)[nH]c2=O)n(-c2ccccc2)n1
11. CN(C)S(=O)(=O)N1CCC(c2nc3ccccc3[nH]2)CC1
12. COc1ccc(NC(=O)C2CCCCN2S(=O)(=O)c2ccc(C(C)(C)C)cc2)cc1 (stereo not given)

Screen / compound no.,7,8,9,10,11,12
Sa growth 42C,110,94,118,75,89,113
Sa growth 42C second temp,91,91,93,83,91,88
GIV-Gai inh,97,.,98,.,103,103
HCMV UL50-53 inh,0,-13,-6,-17,-27,.

13. Cc1ccc(Cl)c(NC(=O)Cn2c(N)nc(C#N)c2C#N)c1
14. CC1(C)CC(CC(=O)N2CCOCC2)(c2ccccc2)CCO1 (stereo not given)
15. Cc1ccc(N2CCN(C(=O)CCc3c(C)nc4ncnn4c3C)CC2)c(C)c1
16. O=C(O)c1cccc(=S)[nH]1
17. Nc1cc(=O)[nH]c2nnc(SCc3ccccc3)n12
18. CC(C)CNc1oc(-c2ccc(S(=O)(=O)N3CCC(C)CC3)cc2)nc1C#N

Screen / compound no.,13,14,15,16,17,18
Sa growth 42C,82,107,103,94,109,.
Sa growth 42C second temp,91,87,93,92,73,.
GIV-Gai inh,.,98,103,.,98,99
HCMV UL50-53 inh,-48,.,-7,-12,-15,-15

19. CCc1n[n+]2c(C)cc(C)nc2s1
20. COC(=O)c1ccccc1NC(=O)COCc1cc(-c2ccc3c(c2)OCO3)on1
21. Cc1ccc(Nc2sc(C(=O)c3ccccc3)c(N)c2C(N)=O)cc1
22. Oc1oc(-c2cccc3ccccc23)nc1C=NC1CCCCC1
23. COc1cc(N(C(=O)Cn2nnc3ccccc32)C(C(=O)NCC2CCCO2)c2cccn2C)ccc1-n1cnnn1 (stereo not given)
24. CCC(=O)OCc1cnc(C)c2oc(=O)c(C(=O)Nc3ccccc3C(F)(F)F)cc12

Screen / compound no.,19,20,21,22,23,24
Sa growth 42C,119,101,119,83,76,117
Sa growth 42C second temp,90,93,103,91,89,97
GIV-Gai inh,.,101&104,109,105,103,103
HCMV UL50-53 inh,-21,-3&4,.,.,6,.

25. CCc1ccc(NC(=O)c2ccc(CN3C(=O)C(C)=C(c4ccc(C)cc4)S3(=O)=O)cc2)cc1
26. Cc1ccc(NC(=O)CC2Sc3ccccc3NC2=O)c(Br)c1 (stereo not given)
27. O=C1Cc2cc(C(=O)CSc3nnc(CN4CCCC4=O)o3)ccc2N1
28. Cc1ccc(C=Nc2ccc(C(F)(F)F)cc2)s1
29. Cn1c(CN(c2ccc(F)cc2)S(C)(=O)=O)nnc1SCC(=O)Nc1cc(F)ccc1F
30. NC(=O)c1ccsc1NC(=O)C1CC2C=CC1C2 (stereo not given)

Screen / compound no.,25,26,27,28,29,30
Sa growth 42C,95,96,87,104,.,127
Sa growth 42C second temp,91,107,71,95,.,99
GIV-Gai inh,101,108,.,.,102,.
HCMV UL50-53 inh,.,-30,-14,-4,-31,2

Some of these compounds in order of the GIV-Gai inh value, descending:
| entry | SMILES | GIV-Gai inh |
| --- | --- | --- |
| 26 | Cc1ccc(NC(=O)CC2Sc3ccccc3NC2=O)c(Br)c1 (stereo not given) | 108 |
| 29 | Cn1c(CN(c2ccc(F)cc2)S(C)(=O)=O)nnc1SCC(=O)Nc1cc(F)ccc1F | 102 |
| 25 | CCc1ccc(NC(=O)c2ccc(CN3C(=O)C(C)=C(c4ccc(C)cc4)S3(=O)=O)cc2)cc1 | 101 |

More records follow:
31. CCCNC(=O)CSc1nc2nc(C)c(Cc3ccccc3Cl)c(C)n2n1
32. COc1ccc(-c2ccc3c(N)c(C(=O)NCc4ccc(C)cc4)sc3n2)cc1
33. Cc1cccc(C)c1OCC(=O)Nc1nc(-c2ccc(Br)cc2)ns1
34. Cc1cccc(-c2nc3c(cnn3-c3ccccc3)c(=O)n2-c2cccc(Cl)c2)c1
35. Nc1cc(=O)n2c(n1)SCC(O)C2 (stereo not given)
36. NC(=O)CN1C(=O)/C(=c2\sc3nc(-c4cccs4)nn3c2=O)c2ccccc21

Screen / compound no.,31,32,33,34,35,36
Sa growth 42C,87,112,102,99,94,89
Sa growth 42C second temp,91,97,95,91,91,86
GIV-Gai inh,101,106,100,104,107,104
HCMV UL50-53 inh,-40,-5,-6,10,9,-13

In another format: entries from further up
Fields – Sa growth 42C, Sa growth 42C second temp, GIV-Gai inh, HCMV UL50-53 inh
31. CCCNC(=O)CSc1nc2nc(C)c(Cc3ccccc3Cl)c(C)n2n1
→ 87, 91, 101, -40
32. COc1ccc(-c2ccc3c(N)c(C(=O)NCc4ccc(C)cc4)sc3n2)cc1
→ 112, 97, 106, -5
33. Cc1cccc(C)c1OCC(=O)Nc1nc(-c2ccc(Br)cc2)ns1
→ 102, 95, 100, -6
34. Cc1cccc(-c2nc3c(cnn3-c3ccccc3)c(=O)n2-c2cccc(Cl)c2)c1
→ 99, 91, 104, 10
35. Nc1cc(=O)n2c(n1)SCC(O)C2 (stereo not given)
→ 94, 91, 107, 9
36. NC(=O)CN1C(=O)/C(=c2\sc3nc(-c4cccs4)nn3c2=O)c2ccccc21
→ 89, 86, 104, -13

Further structures:
37. CCN(CC)c1ccc(NS(=O)(=O)c2cc(-c3onc(C)c3C)ccc2OC)c(C)c1
38. CCOC(=O)c1c(NC(=O)c2cc(C(C)C)on2)sc(C(C)=O)c1C
39. CSc1ccc(/C=N/NC=O)cc1
40. NC(=O)C1CCCN1 (stereo not given)
41. O=C(COC(=O)c1ccc(S(=O)(=O)C(F)F)cc1)c1ccc(F)c(F)c1
42. O=C1NC(c2cccs2)Nc2sc3c(c21)CCCC3 (stereo not given)

Screen / compound no.,37,38,39,40,41,42
Sa growth 42C,102,97,107,94,98,99
Sa growth 42C second temp,92,107,104,93,85,99
GIV-Gai inh,99,109,.,.,.,110
HCMV UL50-53 inh,.,-2,-8,1,-7,-8

43. CNS(=O)(=O)c1cc(-c2nn3c(C)nnc3c3ccccc23)ccc1C
44. O=C(Nc1ccc2c(c1)OCO2)c1nnc(C(=O)N2CCCC(C(=O)NCCC3=CCCCC3)C2)s1 (stereo not given)
45. Cc1ccc(C)n1-c1nnc(N2CCCC(C(=O)Nc3ccc(C(C)C)cc3)C2)s1 (stereo not given)
46. Cc1cccc(N2CCN(C(=O)Nc3cn(CC(C)C)c(=O)c4ccccc34)CC2)c1C
47. O=C1NCCN1C(=O)NC1CCCCC1
48. CCOC(=O)c1sc2cccc(F)c2c1S(=O)(=O)NCc1ccccc1Cl

Screen / compound no.,43,44,45,46,47,48
Sa growth 42C,115,.,93,109,85,114
Sa growth 42C second temp,86,.,89,84,71,100
GIV-Gai inh,105,104,105,103,97,105
HCMV UL50-53 inh,.,-17,-5,.,-31,.

49. N#C/C(=C/c1ccc(-c2cccc(C(F)(F)F)c2)o1)c1ccc(C(=O)O)cc1
50. CC(NC(=O)Nc1ccc(S(N)(=O)=O)cc1)(C(F)(F)F)C(F)(F)F
51. Nc1nc(CCl)nc(N2CCCCC2)n1
52. CCOC(=O)c1ccc(-c2ccc(-c3nc4cc(C(=O)OCC)ccc4n3CC)o2)cc1
53. COCCNCc1ccc(-c2cc(Cl)cc(Cl)c2)o1
54. CC(=O)N1CCC(N(Cc2ccco2)C(=O)Nc2cccc(C)c2)CC1

Screen / compound no.,49,50,51,52,53,54
Sa growth 42C,121,102,89,93,.,107
Sa growth 42C second temp,97,103,86,97,.,109
GIV-Gai inh,111,106,99,.,107,108
HCMV UL50-53 inh,-52,7,-3,10,-14,.

55. O=C(NCn1nnc(-c2ccncc2)n1)c1ccccc1
56. CCc1ccc(N(CC)C(=O)Cc2c(C(=O)O)n(C)c3ccccc23)cc1
57. Cc1cc(C)cc(NC(=O)N2Cc3c(sc4c3CCN(C)C4)-n3cccc3C2c2ccc(F)cc2)c1 (stereo not given)
58. CCOc1cc(N2CCOCC2)c(OCC)cc1NC(=O)c1ccccc1
59. COc1ccccc1CNC(=O)Cn1cccc1C(=O)c1ccccc1C
60. CCN1CCN(CCCNC(=O)c2oc3ccc(S(=O)(=O)N4CCOCC4)cc3c2C)CC1

Screen / compound no.,55,56,57,58,59,60
Sa growth 42C,86,.,.,103,.,93
Sa growth 42C second temp,87,.,.,85,.,85
GIV-Gai inh,97,104,108,95,99,101
HCMV UL50-53 inh,.,-17,-3,-5,-15,-22

61. COc1ccc(-c2cc(-c3ccc(F)cc3)nc3c2COc2ccccc2-3)cc1
62. COc1ccc(C(N)CCc2ccc(C)o2)cc1 (stereo not given)
63. Cc1ccc2[nH]c(=O)c(CNC3CCCC3)cc2c1
64. Cc1ccc(-n2cccc2)c(NC(=O)C(c2ccccc2)C2CCCC2)c1 (stereo not given)
65. CCCN(CCC)C(=O)c1ccc2c(c1)N(Cc1ccccc1)C(=O)CS2=O (stereo not given)
66. CC1CCN(c2nc3ccc(C(=O)NCc4ccccc4Br)cc3s2)CC1

Screen / compound no.,61,62,63,64,65,66
Sa growth 42C,88,94,81,60,71,.
Sa growth 42C second temp,88,93,86,51,85,.
GIV-Gai inh,108,110,97,106,99,102
HCMV UL50-53 inh,-11,.,-33,-5,-8,-17

67. Cc1ccc(OC(=O)NC2(C(F)(F)F)Oc3ccccc3O2)cc1
68. FC(F)(F)c1nc(NCCc2ccccn2)c2ccccc2n1
69. CCC([N+](=O)[O-])C1(O)C(=O)Nc2ccccc21 (stereo not given)
70. COc1ccccc1CNC(=O)c1nnn(CC(=O)Nc2c(C)cccc2C)c1N
71. Cc1cc(C)c2oc(-c3cccc(NC(=O)c4ccc(Br)o4)c3)nc2c1
72. O=C(c1ccco1)c1cn(-c2ccccc2)nc1C(=O)c1nc2ccccc2s1

Screen / compound no.,67,68,69,70,71,72
Sa growth 42C,100,64,.,94,104,73
Sa growth 42C second temp,95,87,.,90,97,88
GIV-Gai inh,106,.,102,96,90,.
HCMV UL50-53 inh,-22,26,-83,.,-17,-12

73. Cc1ccc(S(=O)(=O)C(CNC(=O)C(=O)NCc2ccc(Cl)cc2)c2cccs2)cc1 (stereo not given)
74. CCCOc1ccc(-c2nn(-c3ccccc3)cc2/C=C(\C#N)C(=O)NCc2ccco2)cc1
75. CC1CN(S(=O)(=O)c2cn(C)c(=O)n(C)c2=O)CC(C)O1 (stereo not given)
76. Cc1c(C(=O)O)oc2c1C(O)CC(C)(C)C2 (stereo not given)
77. C(=N\Nc1nc2ccccc2[nH]1)/C1CCCCC1
78. CC1Cc2scc[n+]2-c2ccccc2N1C=O (stereo not given)

Screen / compound no.,73,74,75,76,77,78
Sa growth 42C,99,91,88,91,73,91
Sa growth 42C second temp,81,95,81,77,39,72
GIV-Gai inh,97,.,101,103,.,.
HCMV UL50-53 inh,.,-4,-33,-12,-18,-14

Look-ups from the results shown.
`Cc1ccc(S(=O)(=O)C(CNC(=O)C(=O)NCc2ccc(Cl)cc2)c2cccs2)cc1` (stereo not given) in Sa growth 42C second temp shows 81
`CC1Cc2scc[n+]2-c2ccccc2N1C=O` (stereo not given) in Sa growth 42C shows 91

The results go on.
79. N#Cc1ccc(NC(=O)COC(=O)CSc2ccccc2)cc1
80. CCOCCCNC(=O)c1cccc(Nc2ccnc(-c3cccc(C)c3)n2)c1
81. C=CCOC(=O)COc1ccc2c3c(c(=O)oc2c1)CCC3
82. CCn1nccc1NC(=O)COc1ccc(Cl)cc1C
83. c1ccc(CCc2c[nH]c3ccccc23)nc1
84. CCn1cnc(S(=O)(=O)N2CCC(C(=O)NCC3CCCO3)CC2)c1 (stereo not given)
85. CCc1ccccc1NC(=O)CN1CCN(Cc2cccc(Cl)c2)S1(=O)=O

Screen / compound no.,79,80,81,82,83,84,85
Sa growth 42C,83,.,89,.,126,.,.
Sa growth 42C second temp,90,.,83,.,99,.,.
GIV-Gai inh,.,104,94,100,97,106,100
HCMV UL50-53 inh,-30,-10,-24,-19,.,-25,14

Six compounds from above, limited to HCMV UL50-53 inh.
no.	SMILES	HCMV UL50-53 inh
84	CCn1cnc(S(=O)(=O)N2CCC(C(=O)NCC3CCCO3)CC2)c1 (stereo not given)	-25
80	CCOCCCNC(=O)c1cccc(Nc2ccnc(-c3cccc(C)c3)n2)c1	-10
81	C=CCOC(=O)COc1ccc2c3c(c(=O)oc2c1)CCC3	-24
82	CCn1nccc1NC(=O)COc1ccc(Cl)cc1C	-19
85	CCc1ccccc1NC(=O)CN1CCN(Cc2cccc(Cl)c2)S1(=O)=O	14
79	N#Cc1ccc(NC(=O)COC(=O)CSc2ccccc2)cc1	-30

Bioassay records from PubChem.
